# GALK inh = blocks human galactokinase activity; P51570; 270,000 compounds, 0.007% hits; Purified GALK, Kinase-Glo residual ATP luminescence; Potency, µM (highest dose often 57.5 µM), for the others: at the highest dose activity change, negative = inhibition, hits mostly inhibitors; also: potency is read from the fitted curve at half-maximal effect; % is scaled to controls: 0 for no effect and ±100 for the full control effect
#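 Luminescence from leftover ATP (Ultra-Glo luciferase/luciferin) served as read-out after a 1 h room-temperature reaction of 5 nM GALK with 35 uM ATP and 100 uM galactose.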
# MBNL1 CUG block = inhibitors of human MBNL1 binding to CUG repeat RNA. Potency, µM (highest dose often 57.5 µM), inactives show at the highest dose activity change, negative = inhibition, most hits filed as inhibitors. TR-FRET MBNL1-His/biotin-(CUG)12 binding, 665/545 ratio. 280,000 compounds, 0.036% hits. Q9NR56; active = well fitted inhibition curve with a large enough effect in the signal ratio, with a control signal flat, not every such curve was filed as active; inconclusive = small, poorly fitted or top-dose-only effect, or effect the other way, or a change in a side signal; inactive = no such curve, though single readings can be large or run the other way; the % refers to the signal ratio; also: potency is read from the fitted curve at half-maximal effect; % is scaled to controls: 0 for no effect and ±100 for the full control effect
#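 TR-FRET between His-tagged MBNL1 and biotin-(CUG)12 RNA, detected with Tb anti-His antibody (0.055 ng/ul) and streptavidin-XL665 (5 nM), 60 min at room temperature. Compounds titrated 92 nM to 58 uM; 665/545 nm ratio normalized to buffer and complex controls.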
# Mito fusion act = inhibitors of mitochondrial division or activators of mitochondrial fusion; S. cerevisiae fusion-defective mutant growth rescue, CellTiterGlo 48 h; Potency, µM (series often up to 46.1 µM), for the others: at the top dose growth rescue (activation), usual class: activators; 320,000 compounds, 0.23% hits; AID 485298;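 also: potency is read from the fitted curve at half-maximal effect; % of control where 0% means no effect; nearly all actives have a fitted effect of over 45% in size; temperature-sensitive fusion mutants such as fzo1-1 at 37 °C on non-fermentable ethanol glycerol medium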
#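 Temperature-sensitive fusion-defective S. cerevisiae (e.g. fzo1-1, mgm1-5) were grown with compound in YPEG medium (3% ethanol, 3% glycerol) for 48 hours at 37C. Growth rescue was measured as viability by CellTiterGlo luminescence after 10 minutes at ambient.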
# USP2a block = USP2a (human) protease inhibition. USP2 core, Ub-CHOP2 coupled fluorogenic reporter, 485/531. Potency, µM (doses to about 38.3 µM), inactives show at the top dose activity change, negative = inhibition, most hits filed as inhibitors. 330,000 compounds, 0.01% hits;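 also: potency is read from the fitted curve at half-maximal effect; plate controls were DMSO wells for no effect and full inhibition by NEM control for full effect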
#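 Deubiquitinase activity read as fluorescence (485/531 nm) after Ub-CHOP2 cleavage activates the enterokinase reporter on its substrate; USP2 core 10nM, Ub-CHOP2 and substrate 25nM each, 30min compound preincubation then 60min RT; data normalized to NEM, curves fitted.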
# PKM2 act = increases activity of human pyruvate kinase M2 | AID 1631 | Potency, µM (highest dose often 57.5 µM), for inactives: at the top dose activation, most hits filed as activators | purified PKM2, Kinase-Glo ATP luminescence, activation; response scale: 0% is enzyme alone, no compound | 260,000 compounds, 0.34% hits | P14618; also: potency is read from the fitted curve at half-maximal effect; % is scaled to controls: 0 for no effect and ±100 for the full control effect; nearly all actives have a fitted effect of over 55% in size
# Target sequence (P14618 whole entry, looked up): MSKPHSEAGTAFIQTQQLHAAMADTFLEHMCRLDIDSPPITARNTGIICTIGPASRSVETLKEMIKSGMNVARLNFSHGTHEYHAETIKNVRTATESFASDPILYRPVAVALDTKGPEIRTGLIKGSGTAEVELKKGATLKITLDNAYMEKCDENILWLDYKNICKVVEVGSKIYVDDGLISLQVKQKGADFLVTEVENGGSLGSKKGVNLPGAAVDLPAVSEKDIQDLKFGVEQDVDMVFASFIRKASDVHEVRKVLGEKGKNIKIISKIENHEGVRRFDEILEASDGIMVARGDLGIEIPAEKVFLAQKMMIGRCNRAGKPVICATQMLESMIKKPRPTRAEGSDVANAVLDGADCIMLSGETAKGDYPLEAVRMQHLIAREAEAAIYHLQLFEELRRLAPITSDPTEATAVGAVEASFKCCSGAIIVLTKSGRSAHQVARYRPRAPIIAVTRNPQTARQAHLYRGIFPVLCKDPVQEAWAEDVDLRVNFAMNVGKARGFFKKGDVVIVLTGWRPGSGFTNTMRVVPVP
#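 Kinase-Glo luminescence reports ATP generated from ADP (0.1 mM) and PEP (0.5 mM) by purified hPK-M2 after 1 h at room temperature, pH 7.2 imidazole buffer; intermediate enzyme activity allows detecting inhibitors and activators.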
# KCNH2 WT inh = KCNH2 (human, wildtype) channel inhibition; Q12809; U2OS, BacMam KCNH2, thallium flux FluxOr; hits give low values; activity change, % at 1.84 µM; 340,000 compounds, 0.37% hits; AID 720551;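 active = maximum activity change below -70%; inconclusive = maximum activity change between -70% and -50%; inactive = maximum activity change above -50%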; also: % is scaled to controls: 0 for no effect and ±100 for the full control effect
#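 U2OS cells transduced with wild-type KCNH2 virus are loaded with FluxOr dye for 45 min, and thallium flux is measured in kinetic reads before and after stimulation buffer. Rate constants are normalized to DMSO controls.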
# S-ASM inh = blocks human secretory acid sphingomyelinase; placental ASM, HMU-PC fluorogenic substrate, 60 min; AID 504937; Potency, µM (doses to about 57.5 µM), without a hit: top-dose activity change, negative = inhibition, hits mostly inhibitors; 340,000 compounds, 0.006% hits; also: potency is read from the fitted curve at half-maximal effect
#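 Fluorescence read-out (Ex 386 nm, Em 447 nm) after stopping the reaction at pH 10. Enzyme: ASM from human placenta; substrate HMU-PC0, 9 uM final; 60 min, 37 °C. Compound preincubation 10 min, ambient temperature.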
# BCR signal inh = chronic active BCR signaling inhibition; ABC-DLBCL IkBa-CBG/CBR reporter, luminescence ratio, 4 h; Potency, µM (series often up to 46.1 µM), for inactives: at the highest dose ratio change, negative = lower green/red ratio, actives largely listed as inhibitors; 340,000 compounds, 0.05% hits; AID 493014; active = well fitted inhibition curve with a large enough effect in the signal ratio, with a control signal flat, not every such curve was filed as active; inconclusive = small, poorly fitted or top-dose-only effect, or effect the other way, or a change in a side signal; the % refers to the signal ratio;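 also: potency is read from the fitted curve at half-maximal effect; plate controls were basal doxycycline-induced cells for no effect and cells given 10 µM MG132 for full effect; MG132 reads +100%, hits lower the ratio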
#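 Concentration-response series (up to 46 uM) were applied to TMD8 dual-reporter cells for 4 h at 37C with doxycycline. Green/red ratio, after filter-overlap correction, defined %Activity; red signal alone was normalised to basal cells and zero luminescence.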
# Eya2 inh = inhibitors of human Eya2 phosphatase activity. AID 488837. recombinant Eya2, OMFP fluorescence dephosphorylation (OMFP is methylfluorescein phosphate). 330,000 compounds, 0.006% hits. Potency, µM (doses to about 76.9 µM), without a hit: at the top dose activity, negative = inhibition, hits mostly inhibitors; also: potency is read from the fitted curve at half-maximal effect; % is scaled to controls: 0 for no effect and ±100 for the full control effect
# Target sequence (O00167 whole entry, looked up): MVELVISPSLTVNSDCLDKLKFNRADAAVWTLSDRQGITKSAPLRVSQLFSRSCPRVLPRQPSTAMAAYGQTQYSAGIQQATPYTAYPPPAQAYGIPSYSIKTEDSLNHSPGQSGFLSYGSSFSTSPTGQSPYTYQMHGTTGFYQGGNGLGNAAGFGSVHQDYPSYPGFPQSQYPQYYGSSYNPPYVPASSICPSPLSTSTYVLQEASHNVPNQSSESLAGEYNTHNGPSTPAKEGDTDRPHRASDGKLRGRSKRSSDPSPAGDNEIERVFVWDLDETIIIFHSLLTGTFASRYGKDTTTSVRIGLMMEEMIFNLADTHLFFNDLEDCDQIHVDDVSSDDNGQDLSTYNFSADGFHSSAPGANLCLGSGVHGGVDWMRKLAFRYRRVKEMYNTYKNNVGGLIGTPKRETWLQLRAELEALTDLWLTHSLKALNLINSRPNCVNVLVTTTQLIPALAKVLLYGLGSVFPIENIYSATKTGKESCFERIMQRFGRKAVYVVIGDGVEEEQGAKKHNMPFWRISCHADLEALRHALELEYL
#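 Eya2 (0.2 uM) preincubated 10 min at ambient with compound, then OMFP substrate added at 50 uM; 10 min reaction in 50 mM HEPES pH 7.5, 50 mM NaCl, 5 uM MgCl2, 0.05% BSA, 1 mM DTT. Fluorescence read at Ex 485/Em 525 nm.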
# Starred values were filed as active, the others as inactive; ? = inconclusive; nt = not tested or not shown; [ ] = another dose, or the depositor's remark. Unless noted, calls follow the shape of the dose curve; as a rule, active = well fitted curve in the direction sought with a large enough effect; inconclusive = small, poorly fitted or top-dose-only effect, or another doubt; inactive = no such curve, though single readings can be large; an effect the other way counts as inactive or inconclusive. Some of the compounds tested; rates above refer to the full screens.
SMILES,GALK inh,MBNL1 CUG block,Mito fusion act,USP2a block,PKM2 act,KCNH2 WT inh,S-ASM inh,BCR signal inh,Eya2 inh
CC1=C(/C=C/C(C)=N\NC(=O)c2ccncc2)C(C)(C)CCC1,-4%,13%,24%,-1%,1%,-3,3%,?,11%
Cc1cccc2sc(NC(=O)C3CC3)nc12,0%,-1%,0%,0%,-3%,-3,0%,-9%,-6%
O=C(/C=C/NNC(=O)c1ccccc1O)c1ccccc1,-5%,17%,-19%,0%,-1%,4,-10%,?,11%
CCOC(=O)c1nnn(-c2nc(OC)nc(N3CCCCC3)n2)c1-c1ccccc1,1%,-1%,6%,4%,1%,nt,nt,-8%,-8%
CN1CN(C)C(c2ccncc2)=C1c1ccncc1,-1%,-11%,-3%,8%,-3%,1,2%,1%,-6%
Cc1c(C)c2ccc(OC(C)C(=O)N3C[C@H]4C[C@@H](C3)c3cccc(=O)n3C4)c(C)c2oc1=O (stereo not given in full),nt,8%,2%,2%,-4%,1,-1%,?,2%
C=CCN(c1ccccc1)S(=O)(=O)c1cc2c(cc1C)NC(=O)CO2,nt,-6%,8%,0%,2%,8,5%,0%,18%
CCN(CC)C(=O)CNc1ccc(C(F)(F)F)cc1[N+](=O)[O-],4%,?,6%,1%,-1%,-5,-4%,?,-7%
CC(C)c1ccc(NC(=O)CN(Cc2ccccc2)S(C)(=O)=O)cc1,0%,-20%,10%,1%,3%,1,-4%,-10%,-8%
CC1CC1C(=O)OCC(=O)NC(=O)NCc1ccco1 (stereo not given),2%,-10%,2%,-8%,2%,2,0%,-3%,17%
CCCN1CCN(C(=O)CCCNC(=O)Cn2cnc3sc(C)c(C)c3c2=O)CC1,0%,-2%,0%,0%,2%,-3,-1%,6%,1%
O=C(/C=C/c1cccc(C(F)(F)F)c1)Nc1cccc(C(F)(F)F)c1,0%,1%,-22%,-1%,-32%,-43,-21%,?,-3%
C1=C(c2ccccc2)Nc2ccccc2N=C1c1ccccc1,3%,7%,?,0%,0%,-4,-2%,5%,5%
FC(F)(F)c1cnc(Oc2cccc3ccccc23)c(Cl)c1,0%,-7%,-2%,2%,-7%,4,-6%,4%,-4%
COc1cccc(OC)c1C(=O)NC(=S)Nc1ccc2c(c1)Cc1ccccc1-2,2%,nt,-2%,-1%,14%,0,-3%,?,0%
CCOC(=O)CN1C(=O)N(c2ccccc2OC)S(=O)(=O)c2ccccc21,nt,-3%,-3%,3%,nt,27,0%,0%,8%
COc1ccc(OC)c(-n2c(-c3cccc(O)c3)n[nH]c2=S)c1,2%,-8%,5%,-1%,5%,nt,0%,?,10%
C=CCSc1n[nH]c(-c2ccc(OC)cc2)n1,-3%,-9%,-5%,-1%,-5%,18,2%,?,-8%
N#Cc1ccc(C2=NC(C(F)(F)F)(C(F)(F)F)c3c(n(Cc4ccco4)c(=O)[nH]c3=O)N2)cc1,-2%,7%,-1%,0%,4%,7,0%,?,9%
Cc1[nH]c(=O)[nH]c(=O)c1S(=O)(=O)NCCOC12CC3CC(CC(C3)C1)C2,-2%,5%,3%,2%,-8%,1,0%,2%,9%
O=c1c2cc(Cl)cc(Cl)c2nc2n1CCC2,5%,-3%,-3%,2%,9%,1,5%,7%,-19%
CCC(=O)Nc1cc(-c2cc3ccccc3oc2=O)ccc1OC,-2%,?,-3%,6%,-1%,nt,75%[activator],-1%,-18%
CC1CC(C(F)F)n2nc(C(=O)Nc3sc4c(c3C#N)CCC(C(C)(C)C)C4)nc2N1 (stereo not given),-1%,0%,1%,0%,7%,-3,14%,10%,5%
CC(C)CNC(=O)CCCc1ccccc1,-2%,0%,2%,0%,0%,-2,0%,3%,14%
O=C(CSc1ccc2nnc(CCNC(=O)c3ccccc3)n2n1)Nc1ccccc1F,1%,8%,-2%,11%,6%,-9,0%,-1%,12%
CN(Cc1ccccc1)C(=O)CCS(=O)(=O)c1cc2c(cc1Cl)NC(=O)CO2,nt,8%,-2%,-1%,1%,-1,-2%,-8%,5%
CC(=O)c1ccc(NC(=O)c2ccc(N3C(=O)c4cccnc4C3=O)cc2)cc1,-3%,5%,4%,0%,-1%,5,0%,-12%,5%
CN(C)C(=O)c1ccc2c3c(cccc13)CC2,2%,0%,-1%,1%,-7%,2,8%,?,1%
O=C(O)COCC(=O)Nc1ccc(OCCc2ccccc2)cc1,-6%,4%,2%,1%,-3%[11.5 µM],2,4%,-1%,10%
O=C(NCc1ccc2c(c1)OCO2)c1cccc(N2CCCC2=O)c1,0%,-7%,2%,0%,0%,11,0%,-27%,-8%

# In a second layout: entries from further up.
> CC(C)CNC(=O)CCCc1ccccc1
  GALK inh = -2%
  MBNL1 CUG block = 0%
  Mito fusion act = 2%
  USP2a block = 0%
  PKM2 act = 0%
  KCNH2 WT inh = -2
  S-ASM inh = 0%
  BCR signal inh = 3%
  Eya2 inh = 14%
> CCOC(=O)CN1C(=O)N(c2ccccc2OC)S(=O)(=O)c2ccccc21
  GALK inh = nt
  MBNL1 CUG block = -3%
  Mito fusion act = -3%
  USP2a block = 3%
  PKM2 act = nt
  KCNH2 WT inh = 27
  S-ASM inh = 0%
  BCR signal inh = 0%
  Eya2 inh = 8%
> O=C(O)COCC(=O)Nc1ccc(OCCc2ccccc2)cc1
  GALK inh = -6%
  MBNL1 CUG block = 4%
  Mito fusion act = 2%
  USP2a block = 1%
  PKM2 act = -3%[11.5 µM]
  KCNH2 WT inh = 2
  S-ASM inh = 4%
  BCR signal inh = -1%
  Eya2 inh = 10%
> N#Cc1ccc(C2=NC(C(F)(F)F)(C(F)(F)F)c3c(n(Cc4ccco4)c(=O)[nH]c3=O)N2)cc1
  GALK inh = -2%
  MBNL1 CUG block = 7%
  Mito fusion act = -1%
  USP2a block = 0%
  PKM2 act = 4%
  KCNH2 WT inh = 7
  S-ASM inh = 0%
  BCR signal inh = ?
  Eya2 inh = 9%

# More structures follow.
SMILES,GALK inh,MBNL1 CUG block,Mito fusion act,USP2a block,PKM2 act,KCNH2 WT inh,S-ASM inh,BCR signal inh,Eya2 inh
C=CCn1c(CCNC(=O)c2cccs2)nnc1SCC(=O)Nc1cccc(F)c1,-3%,-3%,0%,1%,-2%,-2,0%,?,16%
COc1ccc(NC(=O)C(c2cc3c(cc2[N+](=O)[O-])OCO3)N2CCN(C=O)CC2)cc1 (stereo not given),nt,?,-4%,1%,6%,17,0%,?,-14%
COc1cc(Br)c(CC(=O)NC2CC2)cc1OC,0%,-2%,3%,2%,-4%,18,2%,-12%,-17%
COc1ccc(C2/C(=C(/O)c3ccccc3)C(=O)C(=O)N2C)cc1OC (stereo not given),-4%,?,4%,3%,1%,-8,-4%,?,6%
Cc1cccc(-n2c(SCC(N)=O)nnc2-c2ccco2)c1,-1%,1%,0%,3%,1%,-9,1%,0%,0%
CC1=N/C(=C\c2ccc(OC(C)C)cc2)C(=O)N1c1ccc(C(=O)O)cc1,-3%,?,-1%,-1%,3%,15,-3%,5%,-2%
C#CCN1C(=O)C2(OCCO2)c2ccccc21,-2%,3%,0%,1%,-9%,-6,1%,4%,4%
CC(=O)N1CCc2cc(C(=O)CN3CCCN(Cc4ccc(F)cc4)C3)ccc21,-2%,-3%,0%,-1%,3%,nt,nt,?,-6%
O=C(CNc1ccc(C(F)(F)F)cc1[N+](=O)[O-])OCC(=O)c1ccccc1,0%,?,-13%,1%,5%,5,-18%,?,-30%
CC(C)(C)NC(=O)c1ccc2c3c(cccc13)CC2,0%,4%,-2%,0%,-2%,-5,1%,1%,-3%
CCCS(=O)(=O)N1CCC(C(=O)NCCN(CC)c2ccccc2)CC1,1%,-5%,-1%,3%,-11%,4,1%,8%,-28%
Cc1cc(N2CCOCC2)n2nc(-c3cccc(F)c3)cc2n1,-2%,23%,8%,1%,-6%,-5,8%,2%,-33%
CC(C)[C@H](NC(=O)c1c(F)cccc1F)C(=O)Nc1cccc(Br)c1,-3%,-1%,10%,-1%,nt,-5,2%,?,-12%
O=[N+]([O-])c1cc(CN2CCN(c3cccc(C(F)(F)F)c3)CC2)c2cccnc2c1O,0%,72%[activator],-6%,-17%,-2%,6,-9%,0%,-5%
CCOc1ccc(NC(=O)CSc2nnc(Cn3cnc([N+](=O)[O-])n3)n2CC)cc1,0%,?,29%,-3%,6%,-29,-2%,0%,-10%
COc1cc(C(=O)NCc2cccc3ccccc23)ccc1OCc1ccccc1,-2%,0%,15%,5%,1%,-5,0%,3%,11%
CCC(C)c1ccccc1OCCCNC1CCCC1 (stereo not given),-5%,1%,-1%,3%,4%,-8,3%,?,-13%
CC(C)NC(=O)CC(=O)NN=C1CCCCC1,1%,175%[activator],-3%,0%,-15%,23,2%,0%,8%
COc1ccc(C(CNc2ncnc3sccc23)N(C)C)cc1OC (stereo not given),0%,-8%,12%,-1%,nt,0,18%,?,-10%
